# 2A firefly: Primary qHTS Assay for Foot and Mouth Disease Virus Antivirals against NCGC Sytravon and CBC Compound Libraries: Firefly Luciferase Signal. HEK cells with a luciferase reporter of 2A StopGo recoding. Potency, µM (top dose mostly 57.5 µM), inactives show at the top dose signal change, negative = less light. actives 0.23% (n = 120,000). AID 1745856, 2022; active = well fitted falling curve with a large enough effect; inconclusive = small, poorly fitted or top-dose-only effect; inactive = no such curve, though single readings can be large or run the other way; also: nearly all actives have a fitted effect of over 60% in size; overnight with compound
# 2A Renilla: Primary qHTS Assay for Foot and Mouth Disease Virus Antivirals against NCGC Sytravon and CBC Compound Libraries: Renilla Luciferase Signal; HEK cells with a luciferase reporter of 2A StopGo recoding; Potency, µM (top dose mostly 57.5 µM), for inactives: at the highest dose signal change, negative = less light; actives 0.32% (n = 120,000); active means well fitted falling curve with a large enough effect; inconclusive means small, poorly fitted or top-dose-only effect; inactive means no such curve, though single readings can be large or run the other way; also: nearly all actives have a fitted effect of over 55% in size; overnight with compound
# Starred values were filed as active, the others as inactive; ? = inconclusive; [ ] = another dose, or the depositor's remark. % is scaled to controls: 0 for no effect and ±100 for the full control effect; potency is read from the fitted curve at half-maximal effect. Only part of the results is shown; count on the stated rates, not on these rows.
# Under each structure – 2A firefly | 2A Renilla
CC1CCCCN1CCNC(=O)C12CC3CC(CC(C3)C1)C2 (stereo not given)
    -1% | 4%
O=C(OCc1cccc([N+](=O)[O-])c1)C1CCCN1C(=O)C12CC3CC(CC(C3)C1)C2 (stereo not given)
    -9% | -12%
O=C(Nc1ccc(Br)cc1F)c1ccc2nc(CCc3ccccc3)oc2c1
    109%[activator] | -9%
CC(C)NC(=O)c1cnn(-c2ccccc2F)c1-n1cccc1
    1% | 7%
Brc1ccc(-c2csc(NC3CCCCC3)n2)cc1
    147%[activator] | -18%
Cc1cc(C)cc(NS(=O)(=O)c2ccc3[nH]cc(C(=O)NCCc4ccccc4)c(=O)c3c2)c1
    14% | 77%[activator]
CCCC(CCC)C(=O)Nc1cc(-c2cn3cccnc3n2)ccc1OC
    -25% | -11%
COC(=O)/C(C#N)=C\c1cn[nH]c1C(C)(C)C
    1% | 8%
O=C(Nc1cccc(C(F)(F)F)c1)c1ccc(Cl)c(N2C(=O)CCS2(=O)=O)c1
    -4% | -9%
Cc1ccc(NC(=O)CN2C(=O)CN=C(c3ccccc3)c3ccccc32)c(C)c1
    0% | 35%[activator]
CCNc1nc(Oc2ccc(OCC(=O)OC)nn2)nc(N2CCOCC2)n1
    19% | 13%
CCOC(=O)CC(=O)CSc1nc2ccccc2c(=O)n1CCc1ccccc1
    185%[activator] | 37%[activator]
CSc1cccc(NC(=O)C(C)SC)c1 (stereo not given)
    11% | 6%
CCCNC(=O)c1ccccc1NC(=O)C1CCN(S(=O)(=O)Cc2ccccc2C)CC1
    7% | 27%
Cc1ccc(/C=C2\CCc3ccccc3C2=O)cc1
    27% | 17%
CCOc1ccc(C(=O)NCc2n[nH]c(=O)c3ccccc23)cc1OCC
    -8% | -6%
CCCCNC(=S)N/N=C(/C)c1ccccn1
    64%[activator] | ?
CCN(CC)S(=O)(=O)c1ccc(N(C)C)c(NS(=O)(=O)c2c(C)cc(C)cc2C)c1
    8% | 311%[activator]
CCCN(CCc1cccs1)[C@H]1CCc2c(O)cccc2C1
    -11%[11.5 µM] | -5%
COc1ccc(Cl)cc1C(=O)Nc1c(N2CCCC2)c2ccccc2oc1=O
    -2% | 25%

# A draw from above in order of heavy-atom count, high to low.
# Under each structure – 2A firefly | 2A Renilla
Cc1cc(C)cc(NS(=O)(=O)c2ccc3[nH]cc(C(=O)NCCc4ccccc4)c(=O)c3c2)c1
    14% | 77%[activator]
O=C(OCc1cccc([N+](=O)[O-])c1)C1CCCN1C(=O)C12CC3CC(CC(C3)C1)C2 (stereo not given)
    -9% | -12%
CC1CCCCN1CCNC(=O)C12CC3CC(CC(C3)C1)C2 (stereo not given)
    -1% | 4%
Brc1ccc(-c2csc(NC3CCCCC3)n2)cc1
    147%[activator] | -18%
COC(=O)/C(C#N)=C\c1cn[nH]c1C(C)(C)C
    1% | 8%
CSc1cccc(NC(=O)C(C)SC)c1 (stereo not given)
    11% | 6%

# (further entries)
# Under each structure – 2A firefly | 2A Renilla
CCn1cc(S(=O)(=O)c2cc(C)cc(C)c2)c(=O)c2cc(F)c(N3CCC(C)CC3)cc21
    -15% | 0%
OC1CCN(Cc2nc(-c3ccc(Cl)cc3)no2)CC1
    39%[activator] | -23%
CCCc1cc(=O)oc2cc(OCC(=O)O)ccc12
    -9% | -10%
Cc1nn(C)c(C)c1CC(=O)N1CCN(S(=O)(=O)c2c(C)noc2C)CC1
    4% | -9%
CCOc1ccccc1NC(=O)Nc1ccc2nc(N3CCN(C)CC3)cc(C)c2c1
    21% | 20%
O=C(Nc1nc2nc(-c3ccccc3)cc(=O)n2[nH]1)c1ccc(F)cc1
    195%[activator] | 199%[activator]
CCCCNC(=O)c1cccc(NC(=O)c2ccccc2C)c1
    12% | 37%[activator]
Cc1c(NC(=O)c2ccc(-c3cccc([N+](=O)[O-])c3)o2)cccc1-c1nc2cc(Cl)ccc2o1
    178%[activator] | -11%
Cc1ccc(CSc2oc(-c3ccco3)nc2S(=O)(=O)c2ccc(C)cc2)cc1
    -13% | 48%[activator]
CCCSc1nnc(-c2nn(Cc3ccccc3)c(=O)c3ccccc23)o1
    20% | 0%
Brc1ccccc1-c1nc(-c2ccncc2)no1
    212%[activator] | 18%
CC(C)(C)C(=O)NCCCC(=O)NCC(C)(C)c1ccccc1
    -5% | -16%
C=CCn1c(N)c(C(=O)OC)sc1=S
    9% | 17%
COc1ccc(C(=O)Nc2ccc3oc(-c4ccc(OC)cc4)nc3c2)cc1
    62%[activator] | -10%
CCOc1ccccc1C(=O)NCc1ccc2c(c1)CCN2C(=O)c1ccc(F)cc1
    -20% | -11%
C=CCOc1cccc(CNC(C)(C)CO)c1
    3% | 7%
Cc1ccc(CN2C(=O)c3ccccc3Sc3ccc(C(=O)N4CCC5(CC4)OCCO5)cc32)cc1
    -18% | 14%
Cc1cc(NS(=O)(=O)Cc2ccccc2)cc2sc(NC(=O)c3ccccc3)nc12
    20% | 98%[activator]
Cc1oc(-c2ccccc2F)nc1CS(=O)(=O)CC(=O)NCCCc1ccccc1
    -7% | 13%
Oc1cccc2c(N=Cc3ccc(F)c(F)c3)cccc12
    15% | -11%
Cc1ccc(CNC(=O)CN2C(=O)COc3ccc(S(=O)(=O)N4CCC(C)CC4)cc32)cc1
    -8% | -13%
COc1ccccc1-c1nc(S(=O)(=O)c2ccc3c(c2)OCCO3)c(N2CCCC2)o1
    6% | 99%[activator]
COc1ccc(CC(=O)NC(C)c2nnc(SCC(=O)c3ccc(Cl)cc3Cl)n2C)cc1 (stereo not given)
    -9% | 21%
O=C(O)CCS(=O)(=O)C1CCCC1
    -2% | 0%
CCCCn1c(=O)[nH]c(=O)c2c1nc(CCC(=O)OC)n2CC(C)C
    -7% | -15%
COc1cccc(NC(=O)c2ccc3[nH]c(C)cc(=O)c3c2)c1
    40%[activator] | 22%
COc1cccc(NC(=O)c2sc3nc(C)c(C(=O)Nc4ccc(C)cc4C)c(-c4ccc(C)o4)c3c2N)c1
    6% | -7%
COc1ccc(-c2cn3c(n2)sc2cc(C(=O)NC4CCCCC4)ccc23)cc1
    5% | 4%
CC1CN(C(=O)CCC(=O)NCc2ccccc2)c2cc(Cl)ccc2O1 (stereo not given)
    -13% | 8%
CC(=O)Nc1cccc(NC(=O)C(=O)NCCc2csc(-c3ccc(C(F)(F)F)cc3)n2)c1
    0% | -5%
CCN(Cc1ccccc1)C(=O)Cn1c(=O)n(-c2ccc(OC)cc2OC)c(=O)c2c(C)c(C)sc21
    -6% | -12%
COc1cccc(-c2nc3ccccc3c(C)c2C#N)c1
    0% | 2%
CCOc1ccc(N(CC(=O)NCc2ccccc2Cl)S(=O)(=O)c2c(C)[nH]c(=O)[nH]c2=O)cc1
    -13% | -18%
Cc1c(-c2ccccc2)oc2c(C(=O)OCC(=O)NC(=O)NCCC(C)C)cccc2c1=O
    -3% | -6%
COc1ccc(-c2nc(-c3c[nH]c(C(=O)N4CCCC4)c3)cs2)cc1
    133%[activator] | 58%[activator]
CCN1CCN(c2ccc(NC(=O)c3cccc(C(F)(F)F)c3)cc2)CC1
    0% | -9%
Cc1ccc(NC(=O)Cn2c(=O)n(Cc3nc(-c4ccccc4)no3)c(=O)c3ccccc32)c(C)c1
    -12% | -9%
COC(=O)C1CCN(S(=O)(=O)NCc2ccnc(Oc3ccc(C)c(C)c3)c2)CC1
    -24% | -22%
Cc1nccc(-c2cccc(NC(=O)c3cc[n+]([O-])cc3)c2)n1
    -10% | 0%
CCOc1ccc(S(=O)(=O)Nc2ccc3oc4c(c3c2)CC(C)CC4)cc1 (stereo not given)
    -9% | 106%[activator]
Cc1c(CCC(=O)N2CCCCC2)c(=O)oc2c(C)c(O)ccc12
    17% | 15%
COc1ccc(CNC(=O)c2cccc(C)c2C)cc1C(=O)O
    -2% | -7%
Cc1cc(C)c(NC(=O)c2cc(S(=O)(=O)NCCC3=CCCCC3)ccc2F)c(C)c1
    1% | 109%[activator]
C/C(=C/C(=O)O)C(=O)Nc1ccc(N2CCOCC2)cc1
    52%[activator] | 16%
CC1CCN(Cc2ccc(CNc3ccc(C#N)cn3)cc2)CC1
    -1% | -10%[1.06 µM]
CCC(C(=O)NC1CCCCC1)n1c(SCc2ccccc2F)nc2ccncc21 (stereo not given)
    0% | -12%
Cc1ccc(C(=O)/C=C/c2ccc(O)cc2)cc1C
    123%[activator] | 95%[activator]
O=C(COc1ccccc1Cl)Nc1cccc2cccnc12
    83%[activator] | 4%
CCOc1ccc(CCNC(=O)CSc2nnnn2-c2ccccc2Cl)cc1OCC
    -2% | 14%
CCOC(=O)C(C)n1cnc2c1c(=O)n(C)c(=O)n2C (stereo not given)
    -9% | -13%
Cc1cc(NC(=O)c2ccccc2Cl)sc1C(=O)NC(C)c1ccc(NC(=O)C2CC2)cc1 (stereo not given)
    51%[activator] | -30%
O=c1[nH]c(SCc2c(F)cccc2Cl)nc2c1CCCC2
    -10% | -16%
CC(CNC(=O)c1cnn(-c2ccc(F)cc2)c1-n1cccc1)c1ccccc1 (stereo not given)
    22% | 13%
Cc1cc(C)cc(NC(=O)c2ccc3oc(=O)c(S(=O)(=O)c4ccc(F)cc4)cc3c2)c1
    -22% | -17%
CCOCCCNC(=O)c1cc(C)nc2ccc(C)cc12
    -1% | -10%
COc1cc(OC)c(OC)cc1/C=C/c1nc2cc3ccccc3cc2c(=O)n1-c1ccc(F)cc1F
    ? | ?
Cc1cccc(NC(=O)CC23CC4CC(CC(C4)C2)C3)c1C
    -9% | 16%
CCOCCCNc1oc(-c2ccc(S(=O)(=O)N3CCC(C)CC3)cc2)nc1C#N
    0% | 53%[activator]
CC(Sc1nc(=O)cc(N)n1CCc1ccccc1)C(=O)Nc1ccc(Cl)cc1 (stereo not given)
    -12% | -8%
Cc1nn(-c2nc3c(c(=O)n(CCN4CCCCC4)c(=O)n3C)n2C(C)C)c(C)c1C
    -5% | -1%

# Additional entries follow.
SMILES	2A firefly	2A Renilla
CCOc1ccc(CCNC(=O)c2sc3nc4n(c(=O)c3c2C)CCCC4)cc1	-12%	-11%
COc1ccc(CCNC(=O)c2ccc(Cn3c(=O)c4ccccc4n(Cc4ccc(F)cc4Cl)c3=O)cc2)cc1OC	7%	6%
O=C(NCc1ccccc1F)c1ccccc1-c1ccccc1	89%[activator]	45%[activator]
CCCOc1ccc(CNC(=O)c2ccc(C)c(-n3c(C)nc4cccnc43)c2)cc1	-16%	-2%
CC1CCCCN1S(=O)(=O)c1ccc(C(=O)Nc2ccc3ccccc3n2)cc1 (stereo not given)	?	?
CCOc1cccc2cc(-c3csc(Nc4cccc(C(F)(F)F)c4)n3)c(=O)oc12	-6%	-5%
CCOC(=O)c1ccc(N2C(=O)c3[nH]nc(-c4ccccc4)c3C2c2ccc(C(C)C)cc2)cc1 (stereo not given)	-7%	-2%
O=C(NC1CCCCCC1)C(=O)N1CCN(C(=O)c2cc3ccccc3[nH]2)CC1	148%[activator]	0%
Cc1ccccc1OCCC(=O)Nc1ccc(N2CCOCC2)cc1	41%	16%
Nc1ccc2oc(-c3ccc4ccccc4c3)nc2c1	29%	2%
O=C1CC(c2ccccc2Cl)Cc2c1cnn2-c1nc2ccccc2[nH]1 (stereo not given)	1%	2%
COc1ccc(C)c2sc(N(Cc3cccnc3)C(=O)C3=COCCO3)nc12	17%	22%
CCN(CC)CCNc1ncnc2c1cnn2-c1cc(Cl)ccc1C	2%	9%
COc1cccc(/C=C/C(=O)c2cccc(O)c2)c1	47%[activator]	-1%
CCC(C)Cc1c(C)sc2nc(CNc3cccc(C)c3)[nH]c(=O)c12 (stereo not given)	5%	-4%
COc1ccc(CCNC(c2ccc(F)cc2)c2nnc(-c3ccccc3Cl)o2)cc1OC (stereo not given)	-28%	-3%
COc1cccc(OCc2cc(=O)n3cc(C)sc3n2)c1	219%[activator]	-2%
Cc1c(Cl)cccc1NC(=O)CCN=C1NS(=O)(=O)c2ccccc21	-13%	92%[activator]
CCc1ccccc1NC(=O)C1CCCN(c2cnccn2)C1 (stereo not given)	-3%	-4%
CCN(CC)C(=O)c1c(-c2ccccc2)c(-c2ccccc2)nn(C)c1=O	-20%	5%
CC(C)(C)NCC(O)COc1ccc(NC(=O)NC2CCCCC2)cc1 (stereo not given)	-7%[11.5 µM]	-9%
CN1CCOc2ccc(S(=O)(=O)NCc3ccc4c(c3)OCO4)cc21	-14%	?
O=C(c1ccc(Cl)cc1)c1cn(Cc2ccccc2)c2cc3c(cc2c1=O)OCCO3	-18%	-3%
COc1ccc(-c2ccc3c(N)c(C(=O)Nc4cc(F)ccc4C)sc3n2)cc1	186%[activator]	4%
COc1ccc2c(c1OC)C(=O)O[C@@H]2[C@H]1c2c(cc3c(c2OC)OCO3)CCN1C	24%[11.5 µM]	59%[activator]
Cc1cc(C)c2c(=O)n(CC(=O)Nc3ccccc3)c(=O)n(-c3ccccc3)c2n1	93%[activator]	10%
CC(=O)N1CCCc2cc(S(=O)(=O)N3CCCCC3)ccc21	2%	12%
O=C(CCc1c[nH]c2ccccc12)Nc1ccc(F)c(F)c1	106%[activator]	13%
N=C(N)SCc1ccc(Br)cc1	19%	15%
CCCCn1c(=O)c2c(nc(-n3nc(C)c(C)c3C)n2Cc2ccc(F)cc2)n(C)c1=O	-4%	-5%
O=[N+]([O-])c1ccc(NNS(=O)(=O)c2ccccc2)c([N+](=O)[O-])c1	37%[activator]	0%
CCc1nc(SCc2cc(=O)c3cc(C)ccc3[nH]2)n[nH]1	-7%	-2%
O=C(COC(=O)c1c[nH]c2ccccc12)Nc1ccc(CN2CCOCC2)cc1	8%	14%

# Assay outcomes as filed in PubChem.
